FBPA Giardia inh: blocks Giardia fructose-bisphosphate aldolase activity; A8B2U2; purified Giardia FBPA; Potency, µM (titrated, usually from 59.6 µM), for inactives: top-dose activity, negative = inhibition, hits mostly inhibitors; hit rate 0.71% among 290,000; note: potency is the fitted concentration of half-maximal effect; nearly all actives have a fitted effect of over 55% in size
Target sequence (A8B2U2 whole entry, looked up): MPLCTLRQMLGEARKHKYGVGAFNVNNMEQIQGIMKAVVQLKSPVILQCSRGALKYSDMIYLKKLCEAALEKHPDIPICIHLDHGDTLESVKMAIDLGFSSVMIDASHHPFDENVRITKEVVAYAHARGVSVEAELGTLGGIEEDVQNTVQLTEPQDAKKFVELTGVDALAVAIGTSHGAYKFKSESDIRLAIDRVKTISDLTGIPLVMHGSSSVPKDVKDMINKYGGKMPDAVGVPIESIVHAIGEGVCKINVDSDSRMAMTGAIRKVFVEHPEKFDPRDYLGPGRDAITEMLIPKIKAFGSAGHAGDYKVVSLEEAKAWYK
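Giardia FBPA (40 nM reagent) was preincubated 10 min at RT with compound (up to 57.5 uM final), then substrate plus GAPDH/TPI/NAD/arsenate coupling system with diaphorase/resazurin was added; resorufin fluorescence (525/598 nm) was read after 20 min.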
HCV inhibitor: blocks hepatitis C virus; hit rate 3.4% among 340,000; AID 651820; Huh7.5.1 HCVcc-Cre infection, luciferase reporter, 44 h; Potency, µM (series often up to 41.8 µM), for the others: top-dose activity change, negative = inhibition, most hits filed as inhibitors; note: potency is the fitted concentration of half-maximal effect
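Whole-lifecycle infectious HCVcc-Cre system; cells 1,000/well, compound then virus (~0.5 moi) added 4 h after plating, 44 h culture. Luciferase read 15 sec following 15 min substrate incubation, room temp.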
AmpC inh detg: inhibitors of E. coli AmpC beta-lactamase with detergent. hit rate 0.041% among 370,000. Potency, µM (series often up to 114 µM), without a hit: top-dose activity change, negative = inhibition, usual class: inhibitors. AID 485294. AmpC hydrolysis of nitrocefin, absorbance 480 nm, 0.01% Triton;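 note: potency is the fitted concentration of half-maximal effect; 0% = no-compound wells and -100% = no-enzyme wells; nearly all actives have a fitted effect of over 25% in size; some results filed as inactive show a strong effect at the top dose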
Target sequence (P00811 whole entry, looked up): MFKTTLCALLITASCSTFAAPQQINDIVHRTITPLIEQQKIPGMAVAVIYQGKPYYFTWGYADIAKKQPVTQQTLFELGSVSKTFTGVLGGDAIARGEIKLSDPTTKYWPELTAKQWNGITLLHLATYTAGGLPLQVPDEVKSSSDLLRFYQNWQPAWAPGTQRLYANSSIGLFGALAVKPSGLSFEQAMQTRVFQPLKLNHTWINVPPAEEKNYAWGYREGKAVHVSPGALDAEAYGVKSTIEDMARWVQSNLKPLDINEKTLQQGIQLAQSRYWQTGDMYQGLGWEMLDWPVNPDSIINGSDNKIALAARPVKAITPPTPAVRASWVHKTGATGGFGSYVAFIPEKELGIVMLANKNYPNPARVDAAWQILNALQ
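20 mM phosphate pH 7.0 + 0.01% (detergent screen) or 0.0001% Triton X-100; 5.3 nM AmpC reagent; cpd preinc 15 min RT; nitrocefin (800 uM stock) to start; A480 q20 s × 4 min; Activity was normalised to no-enzyme and no-compound control wells.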
HCMV inh: inhibitors of human cytomegalovirus; HFF cells, HCMV-luciferase reporter, 72 h; active compounds read low; activity change, negative = inhibition, % at 57.5 µM; hit rate 4.5% among 410,000; AID 1259415; in the data active = activity change below about -60%; inconclusive = no clear call, values can overlap the other calls; inactive = above about -39%
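Human foreskin fibroblasts infected with luciferase-reporter HCMV at MOI 1 PFU/cell, compounds at two doses. Luciferase measured 72 h post infection; normalized to buffer-only basal and Salinomycin (10uM) controls.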
AmpC inh no detg: AmpC beta-lactamase inhibition without detergent; P00811; AmpC nitrocefin hydrolysis, absorbance 480 nm, 0.0001% Triton; Potency, µM (doses to about 57.1 µM), inactives show top-dose activity change, negative = inhibition, usual class: inhibitors; hit rate 0.52% among 330,000; AID 485341;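 note: potency is the fitted concentration of half-maximal effect; plate controls were no compound for no effect and no enzyme for full effect; nearly all actives have a fitted effect of over 20% in size; some results filed as inactive show a strong effect at the top dose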
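AmpC (5.3 nM in the dispensed reagent) in 20 mM phosphate pH 7.0 with 0.01% (detergent screen) or 0.0001% Triton X-100 was preincubated with compounds for 15 min at room temperature. Nitrocefin was then added from an 800 uM solution, and hydrolysis was followed at 480 nm.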
Starred values were filed as active, the others as inactive; u = inconclusive; x = not tested or not shown; & = joins results of further samples; [ ] = dose if it differs, or a comment. Unless noted, calls come from the whole dose curve; as a rule, active = well fitted curve in the direction sought with a large enough effect; inconclusive = small, poorly fitted or top-dose-only effect, or another doubt; inactive = no such curve, though single readings can be large; an effect the other way counts as inactive or inconclusive. Unless noted, % is set by controls: 0 for no effect and ±100 for the full control effect. An excerpt; rates above refer to the full screens.

SMILES	FBPA Giardia inh	HCV inhibitor	AmpC inh detg	HCMV inh	AmpC inh no detg
COc1ccc(OC2C(=O)N(CCc3ccc(OC)c(OC)c3)C2c2ccc3c(c2)OCO3)cc1 (configuration not stated)	-2.1%	u	3.1%	-8.1	78.1%[activator]
CC1(C)CC(=O)C2=C(C1)OC(N)=C(C#N)C2c1ccccc1OC(=O)N1CCOCC1 (configuration not stated)	-25.1%	-5.3%	-2.7%	11.5	-5.9%
CCCOc1ccc(CNC(=O)C2CCN(c3nnc(N4CCCC4=O)s3)CC2)cc1	13.7%	17.5%	-7.8%	0.6	-14.6%
COc1cc2nc(C3CCC3)nc(N3CCN(c4ccccc4OC)CC3)c2cc1OC	1.2%	3.16µM*	u	25.3	244.1%[activator]
NC(=O)c1cccnc1Nc1ccccc1Cl	-18.3%	u	3.8%	52.7	-15.5%
COC(=O)CNC(=O)C1Cc2ccccc2CN1S(=O)(=O)c1cccs1 (configuration not stated)	2.7%	11.2%	2.3%	0.0	-11.7%
C[C@@H]1C[C@H]2[C@@H]3C[C@H](F)C4=CC(=O)C=C[C@@]4(C)[C@]3(F)[C@H](O)C[C@]2(C)[C@@]1(O)C(=O)CO	3.1%[21.7 µM]	x	x	x	x
COC(=O)[C@@H]1[C@H]2C[C@H]3c4[nH]c5ccccc5c4CCN3C[C@@H]2CC[C@@H]1O	-2.2%&-0.8%	u	-4.5%	54.2	-11.9%
Cc1cc2c(c(SCC#N)n1)C(=O)OC2	-0.3%	5.8%	u	25.0	-15.7%
O=C(O)c1cccc(NC(=O)c2ccc3c(c2)C(=O)N(c2ccccc2)C3=O)c1	1.2%	37.1%[activator]	-0.6%	25.5	-16.6%
CC(CC(=O)Nc1nc2ccccc2[nH]1)c1ccccc1 (configuration not stated)	7.6%	u	1.7%	-2.0	-36.4%
COc1ccc(CNC(=O)CCC(=O)c2ccccc2)cc1	x	-7.5%	4.9%	-7.7	-18.5%
CNc1ccc(Oc2nc([N+](=O)[O-])nn2C)cc1	-24.6%	14.8%	-12.6%	-34.0	-29.1%
CCOc1ccc(CC(=O)Nc2c3c(nn2C(C)(C)C)CS(=O)(=O)C3)cc1	-10.7%	-1.2%	-14.1%	34.3	-19.8%
COc1ccc(C(=O)N/C(=C/c2cccs2)c2nc3ccccc3[nH]2)cc1OC	3.3%	0.0%	u	-21.0	22.7%
Cc1nn(C)cc1C(C(=O)NC1CCCCC1)N(C(=O)c1cnccn1)c1ccc(Oc2ccccc2)cc1 (configuration not stated)	4.2%	-1.5%	-3.6%	26.4	197.3%[activator]
CCC(C)(CN(C)C)OC(=O)c1ccccc1 (configuration not stated)	x	-21.2%	4.0%	u	-4.1%
COC(=O)NNC(=S)NCc1ccc(C)cc1	-25.1%	12.6%	-9.8%	-15.8	-14.1%
Cc1csc(SCC(=O)NC2CCC(C)CC2)n1 (configuration not stated)	x	6.7%	-0.1%	26.9	-11.0%
Cc1cccc(NC(=O)COC(=O)C2C3CC4OC(=O)C2C4C3)c1C (configuration not stated)	-10.0%	9.8%	1.8%	-17.4	-6.8%
NC(=O)NCC(=O)N1CCN(S(=O)(=O)c2ccc(Cl)s2)CC1	x	8.3%	-13.8%	22.7	-29.9%
Cc1ccc(S(=O)(=O)N[C@H](C(=O)N2CCC(C(=O)N3CCC[C@H]3C(=O)O)CC2)C(C)C)cc1	4.7%	7.9%	-15.4%	2.8	-8.1%
CC(C)N(CC[C@@](C(N)=O)(c1ccccc1)c1ccccn1)C(C)C	3.6%[21.7 µM]	x	x	x	x
O=C(Cc1ccc(Cl)cc1)Nc1ccc(N2CCN(C(=O)c3ccco3)CC2)cc1	-8.2%	-7.0%	-7.7%	-15.9	-5.7%
COC(=O)COc1ccc2cc(-c3ccc(OC)cc3)c(=O)oc2c1	7.2%	-1.6%	u	26.1	-2.9%
COc1ccc(C)cc1NC(=O)n1ncc2c(C)cccc21	5.1%	-16.0%	2.0%	-4.3	-20.7%
CC(=O)C1CCC2C3CCC4CC(O)CCC4(C)C3C(=O)CC12C (configuration not stated)	x	19.0%	x	-22.8	x
Cc1nnsc1C(=O)N/N=C/c1ccccc1Cl	6.7%	1.3%	-8.0%	2.9	-46.0%
Cc1cc(C(F)(F)F)nc(SCC(=O)NC2=NC(=O)C(C)S2)n1 (configuration not stated)	-20.3%	5.7%	-14.0%	-15.3	-19.0%
COC(=O)C1=C(c2ccccc2OCc2ccccc2)C[C@@H]2CC[C@H]1N2C(=O)NCCOc1ccccc1Cl	x	u	4.8%	-72.9*	7.3%
C=CCn1c(=S)[nH]c2cc(C(=O)N3CCN(c4ccccc4OC)CC3)ccc2c1=O	x	u	3.7%	15.5	58.2%
O=C(Nc1ncn[nH]1)c1cccc(F)c1	x	1.1%	4.7%	-5.7	-6.2%
O=C1C2C3c4ccccc4C(c4ccccc43)C2C(=O)N1Cc1ccccn1 (configuration not stated)	3.6%	8.3%	9.8%	-19.6	38.7%
CCc1cccc(N(C(=O)c2csnn2)C(C(=O)NC(C)(C)C)c2ccncc2)c1 (configuration not stated)	5.8%	14.3%	-4.5%	-16.4	29.3%
Cc1cc(C)cc(C(=O)Nn2cnnc2)c1	10.3%	8.4%	-4.3%	10.3	-13.5%
O=C(O)c1ccccc1/C=N/Nc1nc(N2CCCCC2)nc(N2CCCCC2)n1	-0.7%	x	u	u	-19.7%
O=C(c1ccco1)N(Cc1ccc([N+](=O)[O-])cc1)c1ccc(Br)cc1	7.9%	18.9%	-7.9%	-16.6	-34.3%
C[C@@H]1C[C@H]2[C@@H]3C[C@H](F)C4=CC(=O)C=C[C@]4(C)[C@@]3(F)[C@@H](O)C[C@]2(C)[C@@]1(O)C(=O)CO	-10.3%	2.2%[8.37 µM]	-12.8%	-11.2	-6.1%
O=C(Nc1ccsc1C(=O)NC1CC1)c1ccccc1	-2.1%	u	-9.5%	-28.3	-41.4%
NC(=O)c1ccc(NC(=O)CS(=O)(=O)c2cn(CC(=O)N3CCCCC3)c3ccccc23)cc1	-2.2%	-3.6%	-4.4%	-23.5	-1.9%
CC(=O)C1CCC2C3CCC4CC(=O)CCC4(C)C3C(O)CC12C (configuration not stated)	x	9.9%	x	-34.8	x
COc1cc(CN=C(C)c2c(O)n(C)c(=O)n(C)c2=O)cc(OC)c1	-0.2%	-23.0%	1.4%	-14.4	7.9%
CN(CC(=O)Nc1ccc(Cl)c(Cl)c1)C(=O)CNC(=O)Cc1ccccc1	x	24.6%	-2.0%	-5.0	60.1%[activator]
Cc1cc(OC(C)C(=O)NCCCN2CCOCC2)c2c(C)c(C)c(=O)oc2c1 (configuration not stated)	-4.6%	7.3%	-12.7%	8.2	24.6%
Cc1ccc(NC(=O)CCC(=O)NNC(=S)Nc2ccc(F)cc2F)cc1C	7.8%	7.3%	-8.9%	-22.9	115.9%[activator]
Cc1ccc(NC(=O)CCCn2c(=O)[nH]c3ccsc3c2=O)cc1	2.5%	-1.9%	3.4%	x	-31.0%
CCOC(=O)/C(C#N)=C/C1=C(N2CCCC2)CC(C)(CC)OC1 (configuration not stated)	-0.6%	-6.9%	-8.3%	6.7	20.2%
CCOC(=O)/C(C#N)=C\C1=C(N2CCCC2)CC(C)(CC)OC1 (configuration not stated)	-1.2%	2.4%	-0.5%	-38.5	-6.3%
O=C(Nc1cccc(F)c1)c1ccc2c(c1)OCCO2	0.2%	-26.0%	-2.2%	24.6	-40.2%
O=C(CN1CCN(C/C=C/c2ccccc2)CC1)Nc1cc([N+](=O)[O-])ccc1Cl	-20.3%	u	-8.4%	53.4	350.2%[activator]
CC(CN(C)C1CCN(C)CC1)c1ccccc1 (configuration not stated)	u	-23.0%	-11.6%	u	-1.4%
CCOc1ccccc1C(=O)N1CCOCC1	2.6%	12.3%	-2.1%	50.0	-17.7%
N#CCOc1ccccc1P(=O)(c1ccccc1)c1ccccc1	4.1%	11.3%	1.8%	-20.2	13.9%
CCc1cccc(NC(=O)CCNS(=O)(=O)c2cc(Br)cnc2N)c1	x	-1.4%	0.2%	-77.3*	-34.3%
O[C@@](CCN1CCCCC1)(c1ccccc1)[C@@H]1C[C@H]2C=C[C@@H]1C2	-6.2%[21.7 µM]	x	x	x	x
CCCc1cc(C(N)=O)c(NC(C)=O)s1	-5.7%	u	3.6%	-4.8	-9.5%
CC(C)c1ccc(NC(=O)COC(=O)C2=COCCO2)cc1	-5.5%	3.5%	0.9%	47.4	-8.9%
O=C(O)C1CC=CCC1C(=O)NCc1cn2ccccc2n1 (configuration not stated)	1.3%	4.9%	-2.2%	41.6	4.1%
O=C(CCS(=O)(=O)c1ccc(Br)cc1)N1CCN(c2ccccc2F)CC1	-2.9%	10.0%	1.3%	20.4	30.9%
COc1ccc(C(=O)COC(=O)c2ccc3c(c2)OCCO3)c(OC)c1	x	3.6%	-1.9%	-28.4	-19.5%
The list goes on.
SMILES	FBPA Giardia inh	HCV inhibitor	AmpC inh detg	HCMV inh	AmpC inh no detg
COc1ccc(N2CCN(C(=O)CC3NC4CCCCC4NC3=O)CC2)cc1 (configuration not stated)	-0.3%	-0.9%	-3.7%	u	-4.5%
Cc1cccc(-c2c(NC(=O)c3ccco3)oc3ccc(Cl)cc3c2=O)c1	-1.3%	14.3%	-8.3%	-2.7	2.8%
O=C(O)c1ccc(Cl)c(NCc2cccnc2)c1	8.6%	1.0%	-9.7%	5.5	-3.2%
COc1ccc(CNC(=O)C(c2ccc(O)cc2)N(Cc2ccco2)C(=O)c2snc(C(N)=O)c2N)cc1 (configuration not stated)	-15.5%	-24.6%	-2.9%	-37.1	-20.8%
O=C(Nc1cnccn1)Nc1ccc(Cl)cc1Cl	1.7%	-0.7%	-6.4%	u	-21.6%
COc1ccccc1C(=O)Nc1ccnn1C1CCN(Cc2cc(C)c(C)cc2C)CC1	x	u	-8.8%	-20.8	153.2%[activator]
CC(C)CCNC(=O)C1CCN(S(=O)(=O)c2ccc3c(c2)CC(C)N3C(=O)C2CC2)CC1 (configuration not stated)	4.8%	5.0%	1.9%	11.4	76.7%[activator]
Cn1c(NCCN2CCOCC2)nc2c1c(=O)n(Cc1cccc(Cl)c1)c(=O)n2C	0.3%	6.6%	u	-18.9	96.0%[activator]
CCCCn1c(=O)nc2n(-c3ccc(C)cc3)c3ccccc3cc-2c1=O	7.1%	9.4%	-11.0%	10.3	-19.6%
Cc1ccccc1Nc1nnc(SCC(=O)NCc2ccco2)s1	5.8%	7.2%	-9.5%	-12.3	-24.2%
CCOc1cc(N2CCOCC2)c(OCC)cc1NC(=O)c1nn(CC)c(=O)c2ccccc12	x	u	1.4%	2.1	30.8%
CCNC(=S)NNc1nncc2ccccc12	-16.7%	9.8%	-1.0%	6.5	-15.2%
O=C(CSCc1ccc(F)cc1)N1CCN(c2ccccc2)CC1	1.0%	0.8%	9.7%&-12.8%	0.0&8.9	25.7%
COc1ccccc1NC(=O)C1=C(C)NC(=O)NC1c1ccccc1[N+](=O)[O-] (configuration not stated)	u	-5.6%	-18.0%	93.9	-12.1%

One compound at a time, as listed above.
`COc1ccc(CNC(=O)C(c2ccc(O)cc2)N(Cc2ccco2)C(=O)c2snc(C(N)=O)c2N)cc1` (configuration not stated) as listed: FBPA Giardia inh: -15.5%; HCV inhibitor: -24.6%; AmpC inh detg: -2.9%; HCMV inh: -37.1; AmpC inh no detg: -20.8%
`COc1ccccc1C(=O)Nc1ccnn1C1CCN(Cc2cc(C)c(C)cc2C)CC1` as listed: FBPA Giardia inh: x; HCV inhibitor: u; AmpC inh detg: -8.8%; HCMV inh: -20.8; AmpC inh no detg: 153.2%[activator]
